Assay outcomes as filed in PubChem.
H5N1 CPE: MDCK cell protection from H5N1 avian flu; cytopathic effect, luminescence, 72 h; stronger effect = higher value; no value below 0 was filed and about half of the inactive calls have no number; reference of the scale not given here; inhibition, % at 50 µM; actives 0.07% (n = 96,000); AID 740, 2007; in the data active = inhibition above about 25%
Starred values were filed as active, the others as inactive; i = inactive.

nr	SMILES	H5N1 CPE
1	CCOc1ccccc1-n1c(O)c(C=Nc2c(C)n(C)n(-c3ccccc3)c2=O)c(=O)[nH]c1=O	1.3
2	CC1(C)CC(=O)C2=C(C1)N=c1s/c(=C/c3ccc(F)c(F)c3)c(=O)n1C2c1ccc(F)cc1 (configuration not stated)	i
3	CC(C)(C)NC(=O)Cn1cc(C#N)c2cc(Br)ccc21	0.6
4	COc1ccc(Cl)cc1C(=O)NNC(=S)NC(=O)c1cc(-c2ccccc2)nc2ccccc12	1.1
5	CCSc1nnc(-c2ccccc2NC(C)=O)c(=O)[nH]1	0.3
6	O=c1c2ccccc2c(/C=N/c2ncn[nH]2)c(O)n1Cc1ccccc1	4.0
7	CCOC(=O)CN1C(=O)C(O)(CC(=O)c2cccc(OC)c2)c2ccccc21 (configuration not stated)	i
8	[O-][n+]1onc2c1CCC1N(O)C(c3ccccc3)CC21O (configuration not stated)	i
9	CSc1cccc(NS(=O)(=O)c2cccc3nsnc23)c1	2.1
10	COC(=O)c1c(C)oc2ccc(NS(=O)(=O)c3cccs3)cc12	0.2
11	CC(C)CNC(=O)c1cccc(NC(=O)c2ccco2)c1	1.2
12	O=C(NC1CCCC1)c1cccc(NC(=O)c2ccco2)c1	i
13	COc1ccc(C(N)=O)cc1NC(=O)c1cccc(F)c1	0.4
14	CC(C)c1[nH]nc2c1C(C(C)C)C(C#N)=C(N)O2 (configuration not stated)	0.5
15	Cc1cc(C)cc(N(CC(=O)NCC2CCCO2)C(=O)CCC(=O)Nc2cc(C)on2)c1 (configuration not stated)	0.3
16	O=C(c1n[nH]c(=O)c2ccccc12)N1CCN(c2ccccc2Cl)CC1	1.6
17	O=C(NCC1CCCO1)C1CCN(CC2CCCCC2)CC1 (configuration not stated)	0.9
18	CCOC(=O)Cc1cc(=O)n2[nH]c(-c3ccc(Cl)cc3)cc2n1	0.2
19	CN(CC(=O)Nc1ccccc1N1CCOCC1)S(=O)(=O)c1ccc(F)cc1	1.4
20	O=C(CCCn1c(SCC(=O)NC2CCCCC2)nc2ccccc2c1=O)NCC1CCCO1 (configuration not stated)	i
21	CCOc1ccc(CC2S/C(=N/c3ccccn3)NC2=O)cc1 (configuration not stated)	i
22	CCOC(=O)N1CCN(c2ccc3nnnn3n2)CC1	0.9
23	COc1ccc(-c2nnn(CC(=O)N(C3CCCC3)C(C)C(=O)NC3CCCC3)n2)cc1OC (configuration not stated)	0.8
24	Cc1cc(C(=O)CSC(C)c2nc3ccccc3c(=O)[nH]2)c(C)n1C (configuration not stated)	1.4
25	CC(=O)c1ccc(-n2c(-c3cc(-c4ccco4)[nH]n3)n[nH]c2=S)cc1	3.6
26	COC(=O)C(Sc1nc(C)cc(C)c1C#N)c1ccccc1 (configuration not stated)	i
27	CCSC1=C(C#N)C(c2cccs2)C(C(=O)OC)=C(C)N1 (configuration not stated)	i
28	CCC(Sc1nc2n[nH]c(C)c2c(=N)n1-c1cccc(Cl)c1)C(=O)NCCOC (configuration not stated)	i
29	O=C(Nc1ccc(S(=O)(=O)N2CCCC2)cc1)c1ccc(CN2CCOCC2)cc1	i
30	COC(=O)COc1ccc(S(=O)(=O)NCCC2=CCCCC2)cc1	1.6
31	CCCn1cnc2c(c1=O)c1nc3ccccc3nc1n2Cc1ccccc1OC	i
32	CC1(C)C(=O)C2(CCCC2)C(=O)OC1c1ccco1 (configuration not stated)	0.3
33	CCOC(=O)N1CCC(NC(=O)CCc2cn(C)c3ccccc23)CC1	i
34	COc1cccc(C2CC(c3ccccc3OC)n3ncnc3N2)c1 (configuration not stated)	1.3
35	CCOC(=O)c1cc2c(ccn2C)n1CC(=O)N1CCN(c2ccccc2OC)CC1	0.2
36	CCn1cc(C(=O)c2ccccc2)c2ccccc21	i
37	CC(/C=N/NC(=O)c1n[nH]c2c1CCC2)=C\c1ccccc1	0.2
38	O=C(c1ccc(-n2cccc2)cc1)N1CCN(Cc2ccccc2)CC1	1.8
39	COc1ccc(CCNC(=O)c2cc(-c3ccccc3)on2)cc1OC	i
40	CCCCn1nnnc1SCC(=O)N1CCOCC1	1.1
41	CCCc1cc(=O)[nH]c(Nc2ccc(N3CCCCC3)cc2)n1	0.1
42	O=C(CCCn1c(=S)[nH]c2cc3c(cc2c1=O)OCO3)N1CCN(C2CCCCC2)CC1	0.1
43	CCN(CC)C(=O)c1sc(NC(=O)c2ccoc2C)c(C(=O)OC)c1C	i
44	COc1ccc(C(c2sc3nc(C)nn3c2O)N2CCCCC2)cc1 (configuration not stated)	i
45	CC1(C)Cc2noc(N)c2C(C)(C)N1OC(=O)c1ccccc1	1.5
46	Cc1ccc(S(=O)(=O)Cn2nnnc2C(c2ccc(F)cc2)N2CCC(C(N)=O)CC2)cc1 (configuration not stated)	0.9
47	COc1ccc(-c2nnc(SCc3ccccc3)n2N)cc1	0.2
48	O=C(NNC1=C(C(=O)C(F)(F)F)CCC1)c1ccc(Br)cc1	i
49	CCC(C)NS(=O)(=O)c1ccc(NS(=O)(=O)c2ccc(F)cc2)cc1 (configuration not stated)	i
50	Cc1ccccc1C(=O)/C=C1/c2ccccc2CC(C)(C)N1C	16
51	CC(C)N(C)C1CCN(C(=O)Nc2ccc(Cl)c(Cl)c2)CC1	i
52	CCc1ccc(CCC(=O)Nc2nnc(CC)s2)o1	0.6
53	COc1ccccc1NC(=O)N1CCCC1C(=O)Nc1nnc(C(C)C)s1 (configuration not stated)	i
54	O=C(CCCN1C(=O)CCC1=O)Nc1cccc(C(F)(F)F)c1	i
55	COC(=O)c1sc(S(=O)(=O)Nc2ccc3cn[nH]c3c2)c(C(=O)OC)c1C	0.5
56	COc1ccc(C)cc1NC(=O)CN1CCN(S(=O)(=O)c2ccc(F)cc2)CC1	0.9
57	COc1cc(OC)cc(C(=O)NC(=S)NCCc2ccccc2)c1	i
58	CC(C)(C)NC(=O)NC(=O)Cn1cc(C(F)(F)F)ccc1=O	i
59	CCN(CC)Cc1c(O)ccc2c(=O)c(Oc3ccccc3OC)coc12	0.1
60	COCCn1c(SCC(=O)Nc2sccc2C(N)=O)nc2cc(Cl)ccc2c1=O	11

Further compounds follow.
nr	SMILES	H5N1 CPE
61	O=C(NCCO)c1ccc(-c2nnc(N3CCOCC3)c3ccccc23)cc1	1.7
62	Cc1ccccc1-n1c(=O)cc(N2CC(C)OC(C)C2)[nH]c1=O (configuration not stated)	i
63	Cc1ccc(C2=NCCNC2=O)c(C)c1	i
64	CCC(Sc1nc2ccccc2c(=O)n1CC1CCCO1)C(=O)NCc1cccnc1 (configuration not stated)	1.7
65	C=CCN1C(=O)c2oc3ccccc3c(=O)c2C1c1ccc(O)c(OC)c1 (configuration not stated)	0.6
66	CC(=O)SC(C)CC(=O)Nc1ccccc1 (configuration not stated)	i
67	O=C(CN1CCN(C(c2ccccc2)c2ccccc2)CC1)NC(=O)NCc1ccco1	1.2
68	CCOC(=O)c1c(-c2ccc(-c3ccccc3)cc2)csc1NC(=O)C1C2CCC(O2)C1C(=O)O (configuration not stated)	0.1
69	O=c1oc2ccccc2c2c1C(c1ccc(Cl)cc1)Nc1ccc3ccccc3c1-2 (configuration not stated)	i
70	O=C(/C=C/Nc1ccc(F)cc1)c1ccc(Oc2ncccn2)cc1	0.1
71	COc1ccc(CN2CCNC(=O)C2CC(=O)O)c(OC)c1 (configuration not stated)	0.3
72	CCOC(=O)C1CCN(C(=O)C2CCN(S(=O)(=O)CC)CC2)CC1	i
73	CC(=O)Nc1cccc(Cl)c1C(=O)O	0.3
74	O=C(Nc1ccc2nc(-c3cccs3)c(-c3cccs3)nc2c1)NC1CC1	0.7
75	O=C(CN1CCN(c2ccccn2)CC1)NCCc1ccccc1	0.5
76	CC(C)COC(=O)n1c(=O)oc2cc(S(=O)(=O)N3CCCCC3)ccc21	2.2
77	Cc1cccc(N2CCN(C(=O)C3CCN(S(=O)(=O)c4cccc5nsnc45)CC3)CC2C)c1 (configuration not stated)	2.0
78	CCCOC(=O)C1=C(C)NC2=C(C(=O)CC(C)(C)C2)C1c1ccc(N(C)C)cc1 (configuration not stated)	0.5
79	Cc1cc2oc3c(c(=O)c2cc1C)C(c1ccc(F)cc1)N(CCCN1CCOCC1)C3=O (configuration not stated)	i
80	Cc1ccc(C(C)C)c(OCCN2C(=O)NC(C)(C)C2=O)c1	0.3
81	O=C(Cc1cccs1)Nc1ccccc1NC(=O)Cc1cccs1	0.2
82	COc1ccccc1CN(Cc1nc2ccccc2c(=O)[nH]1)C(=O)Nc1cccc(C)c1	i
83	Cc1noc(C)c1C(=O)N1CC(C)OC(C)C1 (configuration not stated)	0.5
84	O=C(O)CC1CCS(=O)(=O)C1 (configuration not stated)	i
85	Cc1ccc(-c2nc3ccccc3c(=O)n2CCN2CCOCC2)cc1	1.6
86	Cc1cc(C)c(OCCCCn2cnc3ccccc3c2=O)c(C)c1	i
87	Nc1nc2n(n1)C(c1cccc(Br)c1)CC(c1ccc(F)cc1)N2 (configuration not stated)	i
88	CCOC(=O)N(C)OC(=O)Nc1ccc(Cl)c(Cl)c1	i
89	Clc1ccc(C2=C3CCCCn4c(-c5ccccc5)c[n+](c43)C2)cc1	i
90	CCCNC(=O)c1nc2ncc(Br)cn2n1	0.7
91	Cc1nc2ccc(Cl)cn2c1P(=S)(N1CCOCC1)N1CCOCC1	1.1
92	CCOc1cc(CN2CCN(c3cccc(C(F)(F)F)c3)CC2)ccc1OC	i
93	CN1CCCCc2c1nc1ccccc1c2N (tested in a mixture with another compound)	0.0
94	Cc1nn(C)cc1/C=N/NC(=O)c1ccc2c(c1)OCO2	i
95	NC(=O)c1ncc(C(F)(F)F)cc1Oc1ccc(C(F)(F)F)cc1	i
96	Cc1nn(C)cc1/C=N/O	i
97	COc1ccc(NC(=O)CCN2CCN(S(=O)(=O)c3cc(Cl)ccc3OC)CC2)cc1	i
98	O=C(O)CCN1Cc2ccccc2C1=O	i
99	O=C(c1ccc(N2C(=O)CCC2=O)cc1)N1CCN(c2ccccc2)CC1	0.3
100	O=C(C1CCN(S(=O)(=O)c2ccc(Cl)cc2)CC1)N1CCOCC1	1.9
101	Cn1c(=O)c2c(nc(N3CCNCC3)n2Cc2cccc3ccccc23)n(C)c1=O	1.2
102	O=C(O)c1ccccc1OCCOc1ccccc1C(=O)O	1.0
103	COc1ccc(-c2noc(-c3ccc(C)cc3)n2)cc1	i
104	Cc1ccc(C)c(N2CCN(C(=O)c3ccc(Cn4c(=O)[nH]c5ccccc5c4=O)cc3)CC2)c1	3.7
105	Cc1cc(C)c2c(n1)nn1c(C)c(CCC(=O)NCc3ccco3)c(C)nc21	2.5
106	CCCCNC(=O)C1CCCNC1=O (configuration not stated)	0.2
107	COC(=O)C(O)(CC(=O)Nc1ccc(C)c(F)c1)C(F)(F)F (configuration not stated)	0.1
108	CCCCCC/C(C)=C1/SC(=S)NC1=O	i
109	Cc1ccc(C)c(N2C(=O)CC(N3CCN(Cc4ccc5c(c4)OCO5)CC3)C2=O)c1 (configuration not stated)	3.1
110	CC(C(=O)N/N=C/c1ccc(N(C)C)c(Br)c1)N(c1ccccc1)S(C)(=O)=O (configuration not stated)	1.1
111	Cc1ccc(S(=O)(=O)N/N=C2/CC(c3ccccc3)Oc3ccccc32)cc1 (configuration not stated)	0.2
112	O=c1cc(O)c(-c2ccccc2Cl)c(Cl)[nH]1	1.3
113	Nc1cccc2cnccc12	1.0
114	CN(C)c1ccc(CNC23CN4CN(CN(C4)C2)C3)cc1	i
115	N=C(N)SCc1nc2ccccc2c(=O)n1-c1ccccc1Cl	0.3
116	Cc1cc(=O)c2n(Cc3ccc(Cl)cc3)nc[n+]2[nH]1	i
117	COc1ccc(OC)c(N(CC(=O)NCCSc2ccccc2)S(C)(=O)=O)c1	i
118	COC(=O)c1ccccc1NC(=S)NC(=O)COc1ccccc1	1.0
119	c1ccc(N2CCN(Cc3ccnc4ccccc34)CC2)cc1	i
120	O=C(NCc1cccs1)c1cccc(N2CCCC2=O)c1	i

More records:
nr	SMILES	H5N1 CPE
121	CNC(=O)C1CC(=O)N(Cc2ccc3c(c2)OCO3)C(=Nc2ccc(OC)cc2)S1 (configuration not stated)	i
122	O=C(NCCN1CCOCC1)c1ccc2ccccc2n1	1.0
123	CCc1ccc(/C=C/C(=O)c2cc(Br)ccc(=O)c2O)cc1	i
124	Cc1[nH]n(-c2ccccc2)c(=O)c1C(C[N+](=O)[O-])c1ccccc1Cl (configuration not stated)	0.7
125	O=S(=O)(Nc1cccc2ncccc12)c1cccs1	i
126	O=C(Nc1ccc(N2CCCC2)c(Cl)c1)c1ccc(Br)o1	i

Structures from the list above that have fluorine (15):
nr	SMILES	H5N1 CPE
2	CC1(C)CC(=O)C2=C(C1)N=c1s/c(=C/c3ccc(F)c(F)c3)c(=O)n1C2c1ccc(F)cc1 (configuration not stated)	i
13	COc1ccc(C(N)=O)cc1NC(=O)c1cccc(F)c1	0.4
19	CN(CC(=O)Nc1ccccc1N1CCOCC1)S(=O)(=O)c1ccc(F)cc1	1.4
46	Cc1ccc(S(=O)(=O)Cn2nnnc2C(c2ccc(F)cc2)N2CCC(C(N)=O)CC2)cc1 (configuration not stated)	0.9
48	O=C(NNC1=C(C(=O)C(F)(F)F)CCC1)c1ccc(Br)cc1	i
49	CCC(C)NS(=O)(=O)c1ccc(NS(=O)(=O)c2ccc(F)cc2)cc1 (configuration not stated)	i
54	O=C(CCCN1C(=O)CCC1=O)Nc1cccc(C(F)(F)F)c1	i
56	COc1ccc(C)cc1NC(=O)CN1CCN(S(=O)(=O)c2ccc(F)cc2)CC1	0.9
58	CC(C)(C)NC(=O)NC(=O)Cn1cc(C(F)(F)F)ccc1=O	i
70	O=C(/C=C/Nc1ccc(F)cc1)c1ccc(Oc2ncccn2)cc1	0.1
79	Cc1cc2oc3c(c(=O)c2cc1C)C(c1ccc(F)cc1)N(CCCN1CCOCC1)C3=O (configuration not stated)	i
87	Nc1nc2n(n1)C(c1cccc(Br)c1)CC(c1ccc(F)cc1)N2 (configuration not stated)	i
92	CCOc1cc(CN2CCN(c3cccc(C(F)(F)F)c3)CC2)ccc1OC	i
95	NC(=O)c1ncc(C(F)(F)F)cc1Oc1ccc(C(F)(F)F)cc1	i
107	COC(=O)C(O)(CC(=O)Nc1ccc(C)c(F)c1)C(F)(F)F (configuration not stated)	0.1

Some of the compounds tested. The share of hits here may be higher or lower than overall.
